From PubChem
NPYLR7 agonist = agonists of mosquito NPYLR7 receptor, primary screen, cell-based, Aedes aegypti, calcium fluorescence, mosquito biting behavior | Aedes aegypti neuropeptide Y-like receptor 7 (NPYLR7) | HEK293T NPYLR7/Galpha15, GCaMP6s calcium fluorescence | activation, % at 10 µM | 270,000 compounds, 0.15% hits | AID 1259423, 2018; in the data active = activation above about 40%;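 note: 0% = vehicle and 100% = reference agonist at the receptor; some compounds past the cut are filed as inactive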
NPYLR7 agonist max-min = second read-out of NPYLR7 agonist, no call of its own (marks repeat the call); activation, %; measured here: Max-Min RFU normalised activation; some inactives read as strong as hits;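 span of the calcium signal over five minutes; 0% = vehicle and 100% = native peptide agonist; compound fluorescence can raise it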
An asterisk follows results filed as active; & = joins results of further samples. This is a subset; count on the stated rates, not on these rows.

SMILES	NPYLR7 agonist	NPYLR7 agonist max-min
CN1CCC(N(Cc2ccncc2)C(=O)Nc2ccc3c(c2)OCO3)CC1	6.3	3.8
CCN(CC)Cc1ccccc1CNc1ccnc2ccsc12	1.8	-5.5
Cc1cccc2c1NC1(CCN(C(=O)Nc3ccccc3F)CC1)NC2=O	3.5	9.4
CCc1nc(NC(=O)N(C)CC2Cc3ccccc3O2)nn1C (centres undefined)	2.0&-1.5	0.7&-4.7
Cn1cc(Cl)cc1C(=O)OCC(N)=O	-1.5	-4.4
O=c1[nH]c(Nc2ccccc2)nc2nccc(-c3ccncc3)c12	0.6	40.7
CC(C)N1CCC(NC(=O)Nc2ccccn2)C1 (centres undefined)	-0.1	-6.0
CC12CCCCC1C2C(=O)N/N=C\c1ccccc1Cl (centres undefined)	0.5	6.8
CCC(C)N(Cc1cc(NC(=O)c2cccc(F)c2)ccc1N(C)C)S(C)(=O)=O (centres undefined)	2.5	15.6
COCCN(CCOC)C(=O)c1nn(-c2ccc(C)cc2)c(=O)cc1OC	5.2	0.4
COC(=O)c1ccc2c(=O)[nH]c(/C(Cl)=C/c3sc(Cl)nc3Cl)nc2c1	11.3	9.2
COc1cc(CN2CCCC(N(C)CCc3ccccc3)C2)ccc1O (centres undefined)	-1.9	-2.1
O=S(=O)(c1ccc(Cl)s1)N1CCC(n2c(CCc3ccccc3)nc3cccnc32)CC1	12.1	3.2
O=C(CC(c1cccc2c1OCO2)c1c[nH]c2ccccc12)N1CCN(c2cccc(Cl)c2)CC1 (centres undefined)	14.4	7.6
CC1(Cc2ccc3ccccc3n2)C(=O)Nc2ccc(OC(F)(F)F)cc21 (centres undefined)	-2.1	4.6
O=C(NCc1ccccc1-n1ccnc1)C1CCC(=O)N(CCN2CCOCC2)C1 (centres undefined)	5.4	1.2
Cc1ccc(SCCSc2nc(N)cc(=O)[nH]2)cc1	2.5	1.6
CCOc1ccc(Oc2ccc(S(=O)(=O)NC(C)CC#N)cc2)cc1 (centres undefined)	-3.6	-5.8
COC(CNC(=O)c1cn(C)cc2c(=O)n(-c3ccccc3)nc1-2)OC	6.3	5.9
CSc1ccccc1OCc1cc(C(=O)N2CCC(c3ccccc3Cl)C2)no1 (centres undefined)	12.9	0.9
CC(NC(=O)CSc1nnc(C(C)(C)C)o1)c1ccc(Cl)cc1Cl (centres undefined)	3.5	1.4
Cn1c(SCC(=O)NCCc2cccs2)nnc1-c1ccccc1	0.8	1.7
CCOc1ccc(C(=O)Nc2cc(-c3cccs3)nn2-c2nc(C)c(C)c(=O)[nH]2)cc1OCC	4.3	1.9
O=C(C1CCCCC1)N1CCN(Cc2cc3n(n2)CCNC3)CC1	7.9	4.3
CC(NC(=O)CCc1ccccc1Cl)c1nnc2n1CCCCC2 (centres undefined)	6.2	-0.5
SMILES	NPYLR7 agonist	NPYLR7 agonist max-min
Cc1[nH]n(-c2ccc([N+](=O)[O-])cc2)c(=O)c1N=Nc1ccc([N+](=O)[O-])cc1Br	6.7	-5.0
Cc1ccc(S(=O)(=O)NCCNc2cc(N3CCCC3)nc(C)n2)c(C)c1	-0.2	-2.6
C=CCn1c(SCC(=O)N2CCOCC2)nc2sc3c(c2c1=O)CCC3	-7.4	-11.8
O=C(NC1CC1)c1cc(=S)[nH]c2ccccc12	3.4	3.4
O=C(c1cccnc1)N1CCC(C2CCN(Cc3cccc(F)c3F)CC2)C1 (centres undefined)	3.1	0.1
CCCN(CCC)Cn1c(O)c(N=NC(=O)c2ccncc2)c2ccccc21	7.5	2.8
O=C(O)c1ccc(Nc2c(Oc3ccccc3)cnn(-c3ccccc3Cl)c2=O)cc1	-7.2	-3.8
CCOCCCN(CC(=O)N(Cc1ccc2c(c1)OCO2)Cc1ccc(C)o1)S(=O)(=O)c1ccc(OC)cc1	-3.4	-2.1
CC(C)c1ccc2oc3nc(N)c(C(=O)O)cc3c(=O)c2c1	-7.8	-13.2
Cc1nc2n(n1)C(=O)C(C(c1ccco1)N1CCN(c3ccccc3F)CC1)S2 (centres undefined)	1.3	-2.1
c1ccc(COCC2CCNC2)cc1 (centres undefined)	15.3	8.3
Cc1ccc2c(c1)NC(=O)c1cc(NC(=O)C3CCCCC3)ccc1O2	5.8	2.3
CCCCCn1c(=O)c2c(nc3n2CC(C)=NN3CCCO)n(C)c1=O	-0.4	3.9
O=[N+]([O-])c1ccc2[nH]c(O)c(N=Nc3cccc(Cl)c3Cl)c2c1	-0.8	-6.6
O=S(=O)(c1ccccc1)N1CCN(c2ncccn2)CC1	7.0	2.1
CCC(NC(=O)c1ccc(C2SCCS2)cc1)c1ccc(C)cc1 (centres undefined)	-1.7	-2.7
Nc1nonc1-c1noc(-c2sc3ccccc3c2Cl)n1	-1.4	-4.3
Cn1ccnc1SCCNc1nc(-c2ccccc2)nc2c1CCNC2	7.6	5.8
CCOC(=O)Cn1c(C)cn2c3c(=O)n(CC(C)C)c(=O)n(C)c3nc12	-12.3	-9.1
Cn1cc(C(=O)Nc2ccc(C(F)(F)F)cc2)c2[nH]c(=O)n(-c3ccc(F)cc3)c(=O)c21	5.6	0.7
Fc1cccc(CN2CCN(Cc3cccc(-n4cccn4)c3)CC2)c1	-4.5	-9.3
Cc1cccc(NC(=O)CC(=O)NC(C)c2cnn(-c3ccccc3F)c2)c1C (centres undefined)	-2.7	-5.6
C=CCn1c(SCCN2CCCCC2)nc2c1c(=O)[nH]c(=O)n2C	6.9	7.8
O=c1c(=Cc2ccc(F)cc2)sc2n1CCN=2	20.4	17.8
Cn1nc(C2CCN(C(=O)c3cccnn3)CC2)n(Cc2ccccc2)c1=O	1.3	0.4

Arranged by molar mass (ascending): some entries from above.
SMILES	NPYLR7 agonist	NPYLR7 agonist max-min
C=CCn1c(SCCN2CCCCC2)nc2c1c(=O)[nH]c(=O)n2C	6.9	7.8
O=C(c1cccnc1)N1CCC(C2CCN(Cc3cccc(F)c3F)CC2)C1 (centres undefined)	3.1	0.1
O=C(O)c1ccc(Nc2c(Oc3ccccc3)cnn(-c3ccccc3Cl)c2=O)cc1	-7.2	-3.8

Going on with the list.
SMILES	NPYLR7 agonist	NPYLR7 agonist max-min
O=C(CC1(Cc2ccccc2)C(=O)c2ccccc2C1=O)c1ccccc1	19.4	7.1
CCn1c(-c2cn(C)nc2OC)n[nH]c1=S	-2.0	-2.9
Cc1cccc2sc(N(CCCN(C)C)C(=O)CCS(=O)(=O)c3ccccc3)nc12	3.9	1.6
Cc1ccc(OCc2nc(C(=O)NCc3ccccn3)cs2)c(C)c1	1.1	9.2
Cc1ccc(C)c(CN(Cc2ccccc2)Cc2nc(C(=O)NCc3cccnc3)co2)c1	-9.7	9.4
COc1cccc(C=Nc2ccc(N3CCOCC3)cc2)c1OCC(=O)N1CCCCC1	4.1	5.7
COc1ccc(C(=O)NCCc2nnc3ccc(SCC(=O)Nc4cccc(OC)c4)nn23)cc1	4.9	-7.8
O=C(CSc1nnc(NC(=O)c2ccccc2)s1)Nc1ccccc1C(F)(F)F	-5.6	0.7
COc1cccc(-c2nc(=S)c3c([nH]2)Oc2ccccc2C3)c1OC	3.9	5.5
COC(=O)c1cc(NC(=O)c2cc3cc(OC)ccc3oc2=O)cc(C(=O)OC)c1	-1.0	-4.4
CCc1c(C)nc(-n2nc(C)cc2NC(=O)Cc2ccc([N+](=O)[O-])cc2)[nH]c1=O	-3.4	-4.3
CCc1c(C)sc2nc(/C(=C/c3cccs3)C(=O)N3CCOCC3)[nH]c(=O)c12	0.0	-4.9
O=C(CCN1C(=O)c2ccc([N+](=O)[O-])cc2C1=O)Nc1ccc(C(=O)O)cc1	-5.9	2.7
COc1cc(-c2nc(COC(=O)c3nnn(-c4ccc(C)c(C)c4)c3C)c(C)o2)cc(OC)c1OC	5.7	-8.2
CSc1nnc(C)c(=O)n1COC(=O)C(c1ccccc1)c1ccccc1	0.2	-0.5
CN(CC(=O)NC(C(N)=O)c1ccc(Cl)cc1)C(=O)c1ccco1 (centres undefined)	-4.1	-3.4
Cc1ccc(S(=O)(=O)NCCCNc2ncnc3c2CCNC3)cc1	5.2	14.9
O=C(c1ccc(Cl)cc1)C1CCCN(C(=O)C2=CCCCC2)C1 (centres undefined)	15.8	7.1
COCCCNC(=O)c1c(O)nc2sccn2c1=O	-0.4	4.3
Cc1cccc(-c2nc(C)c(Cc3ccccc3)c(N3CCNCC3)n2)c1	-3.4	6.4
O=C(C=Cc1ccc(Br)cc1F)c1ccc(O)cc1	14.5	5.2
Cc1cc(=O)oc2cc(CN3CCC(N)(C(=O)O)C3)ccc12 (centres undefined)	2.1	-11.9
CCC(C)N(CC(=O)N(Cc1ccc(F)cc1)Cc1cccs1)C(=O)c1ccc(Cl)cc1 (centres undefined)	14.9	12.1
Cc1nn(C)c(C)c1C(C)NC(=O)NC1CC2CCC1(C)C2(C)C (centres undefined)	9.4	8.6
OC(COCc1ccco1)CN(Cc1ccc(F)cc1)Cc1ccco1 (centres undefined)	23.3	22.7

Some of the entries so far, as a markdown table.
| Structure | NPYLR7 agonist | NPYLR7 agonist max-min |
| --- | --- | --- |
| Cc1ccc(OCc2nc(C(=O)NCc3ccccn3)cs2)c(C)c1 | 1.1 | 9.2 |
| Cc1ccc(C)c(CN(Cc2ccccc2)Cc2nc(C(=O)NCc3cccnc3)co2)c1 | -9.7 | 9.4 |
| COc1cccc(C=Nc2ccc(N3CCOCC3)cc2)c1OCC(=O)N1CCCCC1 | 4.1 | 5.7 |
| COc1ccc(C(=O)NCCc2nnc3ccc(SCC(=O)Nc4cccc(OC)c4)nn23)cc1 | 4.9 | -7.8 |
| O=C(CSc1nnc(NC(=O)c2ccccc2)s1)Nc1ccccc1C(F)(F)F | -5.6 | 0.7 |
| COc1cccc(-c2nc(=S)c3c([nH]2)Oc2ccccc2C3)c1OC | 3.9 | 5.5 |
| COC(=O)c1cc(NC(=O)c2cc3cc(OC)ccc3oc2=O)cc(C(=O)OC)c1 | -1.0 | -4.4 |
| CCc1c(C)nc(-n2nc(C)cc2NC(=O)Cc2ccc([N+](=O)[O-])cc2)[nH]c1=O | -3.4 | -4.3 |
| CCc1c(C)sc2nc(/C(=C/c3cccs3)C(=O)N3CCOCC3)[nH]c(=O)c12 | 0.0 | -4.9 |
| O=C(CCN1C(=O)c2ccc([N+](=O)[O-])cc2C1=O)Nc1ccc(C(=O)O)cc1 | -5.9 | 2.7 |
| COc1cc(-c2nc(COC(=O)c3nnn(-c4ccc(C)c(C)c4)c3C)c(C)o2)cc(OC)c1OC | 5.7 | -8.2 |
| CSc1nnc(C)c(=O)n1COC(=O)C(c1ccccc1)c1ccccc1 | 0.2 | -0.5 |
| CN(CC(=O)NC(C(N)=O)c1ccc(Cl)cc1)C(=O)c1ccco1 (centres undefined) | -4.1 | -3.4 |
| Cc1ccc(S(=O)(=O)NCCCNc2ncnc3c2CCNC3)cc1 | 5.2 | 14.9 |
| O=C(c1ccc(Cl)cc1)C1CCCN(C(=O)C2=CCCCC2)C1 (centres undefined) | 15.8 | 7.1 |
| COCCCNC(=O)c1c(O)nc2sccn2c1=O | -0.4 | 4.3 |
| Cc1cccc(-c2nc(C)c(Cc3ccccc3)c(N3CCNCC3)n2)c1 | -3.4 | 6.4 |
| O=C(C=Cc1ccc(Br)cc1F)c1ccc(O)cc1 | 14.5 | 5.2 |
| Cc1cc(=O)oc2cc(CN3CCC(N)(C(=O)O)C3)ccc12 (centres undefined) | 2.1 | -11.9 |
| CCC(C)N(CC(=O)N(Cc1ccc(F)cc1)Cc1cccs1)C(=O)c1ccc(Cl)cc1 (centres undefined) | 14.9 | 12.1 |

Going on with the list:
SMILES	NPYLR7 agonist	NPYLR7 agonist max-min
Cc1cc(C)nc(NS(=O)(=O)c2ccc(NC(=O)c3cc(Cl)cc(Cl)c3)cc2)n1	-13.5	-24.0
COc1cccc(OCCCOc2cccc3ccccc23)c1	18.3	7.3
CC(C)CCNC(=O)N1CCCC1c1cc(C(C)C)no1 (centres undefined)	-3.9	-14.2
O=C(CCC1CCN(C(=O)c2cnsn2)CC1)NCC1CCCO1 (centres undefined)	0.1	-1.7
Cc1ccn(-c2ccc(N3CCN(C(=O)c4ccc(Cl)cc4)CC3)nn2)n1	-7.0	-12.9
CC(=O)Nc1ccc(CN(C)c2c(C)nc3ccc(C(=O)Nc4ccc5c(c4)OCC(=O)N5)cn23)cc1	8.9	1.2
CNc1nnc(SCc2cccc(Cl)c2)s1	13.9	6.9
COCCN(CC(=O)N(Cc1cccn1Cc1ccccc1Cl)CC(C)C)C(=O)c1cccc(F)c1	-2.3	4.9
Cc1cc(NC(=O)CN2CCCC3(CCCc4ccccc43)C2)n(C)n1 (centres undefined)	8.5	10.6
C/C(=C\C(=O)Nc1ccccc1C(=O)O)c1ccc2ccccc2c1	-13.7	-20.7
CCCC(=O)N1CCC1(C)C(=O)NS(=O)(=O)Cc1cccc(Cl)c1 (centres undefined)	0.6	-1.3
O=C(CN1CCCCC1)N1N=C2c3ccccc3CCC2C1c1cccs1 (centres undefined)	6.9	5.2
CC(C)C(=O)Nc1ccc(-c2ccc3nncn3n2)cc1	-12.8	-4.1
COCCN(CC(=O)N(CCc1c[nH]c2ccccc12)Cc1ccc(F)cc1)C(=O)Nc1ccc(C#N)cc1	2.6	5.8
COC(=O)c1cnc(Nc2nc(C(N)Cc3ccccc3)cs2)nc1C(F)(F)F (centres undefined)	-7.4	-11.6
CCCCn1c(=O)c2c(nc3n2CCN3c2ccc(C)cc2)n(C)c1=O	4.6	3.2
CCc1ccc(-c2ccc(SCc3ccccn3)nn2)cc1	-0.3	-0.5
Cc1cccnc1CCNC(=O)c1ccc(OC2CCN(Cc3ccccn3)CC2)cc1	-1.8	-3.1
CCOc1ccc(OCC(=O)Nc2c3c(nn2C(C)(C)C)CSC3)cc1	0.2	-4.7
CCc1nc2ccc(C(=O)Nc3ccc(OC)c(OC)c3)cn2c1N(CC)CCN(C)C	0.4	-3.1
CCOc1nc(-c2ccc(OC)cc2)n(-c2cccc(NC(=O)c3ccc([N+](=O)[O-])cc3)c2)n1	24.2	35.7
